Mtb hypoxia inh – inhibitors of hypoxia-regulated fluorescent reporter in Mycobacterium tuberculosis; M. tuberculosis hypoxia-regulated fluorescent reporter, fluorescence; fluorescence inhibition, % (concentration not given with the values); 300,000 compounds, 0.1% hits; AID 1159583;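 active means 35 to 45% if threefold the growth effect, above 45% if 1.5-fold the growth effect; inactive means the rest, general growth blockers included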;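 further: wells of about 50 µL received 100 nL stock; 0% = vehicle wells and 100% = reference inhibitor wells; whole bacteria with a GFP reporter of the hypoxia response; strong numbers were not always called active; many hits fall short of the cut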
PrP UTR inh – suppresses PrP 5' UTR mRNA reporter expression | cell-based PrP 5' UTR mRNA reporter, plate reader | inhibition, % (concentration not given with the values) | 340,000 compounds, 0.35% hits | AID 488862;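 active means every replicate at 50% or more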;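 further: 0 = median of the neutral control wells; tested in H4 reporter cells; numbers are from one replicate; inactives centre near -14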
ugtP null kill – compounds lethal to S. aureus RN4220 ugtP deletion mutant | OD600 growth, 16 h; some inactives read as strong as hits | growth inhibition, % (concentration not given with the values) | 330,000 compounds, 0.54% hits;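 active means z-score under -3 and OD600 up to 0.15 on both plates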;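 further: plate controls were untreated wells for no effect and antibiotic for full effect; wells of about 80 µL received 100 nL stock; the first replicate is given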
Autofluor counter – counter-screen for toxin protease inhibitors: compound fluorescence | compound autofluorescence counterscreen, microsphere flow cytometry; stronger effect = higher value | fluorescence intensity (no concentration beside the values) | 360,000 compounds, 3.1% hits | AID 624483;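 active means at least 3 SD above the mean of all compounds, about 16000 in these data; inconclusive means too few beads counted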;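 further: 100 nL of 1 mM stock went into each well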
BJeLR lethal – BJeLR cell viability loss | 300,000 compounds, 0.17% hits | AID 1554 | inhibition, % (no concentration beside the values) | BJeLR (HRASV12) viability, CellTiter-Glo ATP luminescence, 48 h; reference of the scale not given here;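 active means replicate mean above 50%; inconclusive means above 50% but judged a plate artefact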;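 further: 50 nL library stock added to about 25 µL; numbers are from one replicate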
Sa RN4220 lethal – S. aureus RN4220 growth inhibition; 330,000 compounds, 0.33% hits; AID 1259311; OD600, 16 h; inhibition, % (no concentration beside the values);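 active means z-score of -3 or lower and OD600 up to 0.18 on both plates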;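 further: plate controls were untreated cells for no effect and reference antibiotic for full effect; stock transfer was 100 nL into about 80 µL; one replicate is shown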
Mtb hypoxia inh growth – recorded beside Mtb hypoxia inh, whose call it bears; growth inhibition, %; measured here: M. tuberculosis growth (absorbance);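 0% = vehicle and 100% = reference antibiotic; read after six days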
The depositor's hits bear a star; ? = inconclusive; . = no result given. The order is random (roughly 4% active in at least one column).

SMILES	Mtb hypoxia inh	Mtb hypoxia inh growth	PrP UTR inh	ugtP null kill	Autofluor counter	BJeLR lethal	Sa RN4220 lethal
O=C(Cc1ccc2cccnc2c1)c1ccc(O)cc1O	7	2	-33	17	6667	-8	6.4
COc1ccc(CN(C)C(C)C(=O)Nc2ccc(S(=O)(=O)N3CCOCC3)cc2)c(OC)c1 (stereo not drawn)	-4	-5	-9	-9	3189	21	4.1
COc1cc2c(cc1OC)CN(C(=O)c1ccc(S(=O)(=O)N3CCCCC3)cc1)CC2	-8	-6	-8	-3	2378	-4	-1.0
Nc1c(N(Cc2ccco2)C(=O)COc2ccccc2F)c(=O)[nH]c(=O)n1Cc1ccccc1	-4	-4	-8	-3	6701	.	-1.8
CCn1c(SC)nnc1-c1ccc(S(=O)(=O)N2CCCCC2)cc1	4	9	-6	2	14386	10	-0.1
CCCCn1cnc2c(cnn2-c2ccc(Cl)cc2)c1=O	-3	6	-67	-3	2843	6	5.2
CN1CCC(=NNC(=O)c2cc(-c3ccc(Cl)cc3)n[nH]2)CC1	-13	7	-18	8	5097	-11	0.6
O=C(Nc1cccc(-c2nnc(-c3ccccc3)o2)c1)C1CCCO1 (stereo not drawn)	19	8	-49	-16	8344	4	10
N#CC1=C(SCC(=O)c2ccc(Br)cc2)NC2=C(C(=O)CCC2)C1c1ccco1 (stereo not drawn)	4	11	-24	-3	4485	.	4.8
CCN1CCCC1CNC(=O)c1ccc2c(c1)NC(=O)/C(=C\c1ccc(OC)c(OC)c1)S2 (stereo not drawn)	-3	7	-37	-10	6009	15	-3.3
O=C(COC(=O)c1ccc(Cl)nc1)Nc1c(Cl)cccc1C(F)(F)F	-5	-7	-20	7	?	-3	4.6
Cc1cccc(NC(=O)c2nc[nH]c2C(=O)NCCCCCNC(=O)OC(C)(C)C)c1	13	10	-1	11	3796	.	6.8
COC(=O)C1CC(O)CN1C(=O)Nc1cccc(C(F)(F)F)c1 (stereo not drawn)	-7	5	-10	1	2023	-5	1.4
CCOC(=O)c1c(NC(=O)CSc2nc3ccccc3o2)sc(C(C)=O)c1C	6	6	-31	-14	2572	1	6.2
Cc1ccnc(NS(=O)(=O)c2ccc(NC(=O)C34CC5CC(CC(C5)C3)C4)cc2)n1	8	9	8	16	9539	-2	3.6
C=CCn1c(=O)n(CCOC)c(=O)c2sc3ccccc3c21	16	11	3	-2	6327	8	-14
COc1cccc(NC(=O)CN(C)C(=O)c2cc(C)on2)c1	-4	4	-4	-3	.	8	-1.1
COc1ccccc1NC(=O)CSc1nnnn1C	-6	3	3	-6	10471	3	-1.5
Cc1ccc(S(=O)(=O)N2CCN(C(=O)c3c(-c4ccccc4)noc3C)CC2)cc1	-7	2	-20	13	4861	-13	1.3
O=C(O)C1CCN(c2nc(-c3ccccc3)nc3c2oc2ccccc23)CC1	0	9	-9	-7	3117	4	-2.4
Cc1ccc(NC(=O)Cc2cc(C(=O)O)c3ccccc3n2)c(C)c1	-1	5	-24	-1	3557	2	2.6
CNc1ccc(/C=C/C(=O)c2cccc3ccccc23)cc1[N+](=O)[O-]	9	4	-18	18	2605	3	-1.2
Cc1ccsc1CN(C)C(=O)c1ccc(Oc2ccccc2)cc1	3	7	0	69	3873	-5	77
O=C(COc1ccc(Cl)cc1Cl)NC(=S)N1CCCc2ccccc21	6	-2	-26	6	10854	-4	8.8
CCn1c(=O)c2c(cnn2C)c2ccccc21	5	12	-6	3	4350	8	-0.9

The last four entries of the section before lead into the next:
SMILES	Mtb hypoxia inh	Mtb hypoxia inh growth	PrP UTR inh	ugtP null kill	Autofluor counter	BJeLR lethal	Sa RN4220 lethal
CNc1ccc(/C=C/C(=O)c2cccc3ccccc23)cc1[N+](=O)[O-]	9	4	-18	18	2605	3	-1.2
Cc1ccsc1CN(C)C(=O)c1ccc(Oc2ccccc2)cc1	3	7	0	69	3873	-5	77
O=C(COc1ccc(Cl)cc1Cl)NC(=S)N1CCCc2ccccc21	6	-2	-26	6	10854	-4	8.8
CCn1c(=O)c2c(cnn2C)c2ccccc21	5	12	-6	3	4350	8	-0.9
CC(c1ccccn1)N(Cc1ccco1)C(=S)Nc1cccc(F)c1 (stereo not drawn)	-12	-1	9	-4	5191	-4	-1.1
CC1=N/C(=C\c2ccc([N+](=O)[O-])cc2)C(=O)N1c1ccc(Br)c(C)c1	6	2	-13	10	6730	3	3.6
CCCCOc1ccc(N(CC(=O)NC2CCCCC2)C(=O)CCC(=O)Nc2ccccn2)cc1	-8	3	-22	0	5756	2	0.9
COc1ccc(NC(=O)/C=C/C(=O)O)cc1Cl	14	9	-26	9	6027	1	2.2
O=C(Cc1ccccc1)Nc1ccccc1C(=O)N1CCCCC1	12	2	-11	10	?	7	0.3
O=C(N/C(=C\c1cn(-c2ccccc2)nc1-c1ccccc1)C(=O)N1CCOCC1)c1ccccc1	12	2	.	4	.	-4	-0.1
CCOc1cc(N2CCOCC2)c(OCC)cc1NC(=O)CN1C(=O)NC2(CCCCC2)C1=O	-6	0	-8	2	3478	.	2.8
COc1ccccc1C(=O)n1nc(C)cc1C	.	.	-1	-1	4588	6	1.9
Oc1oc(-c2cccc3ccccc23)nc1/C=N/c1nccs1	.	.	-7	.	2116	4	.
O=C(/C=C/c1ccc2c(c1)OCO2)c1ccc(F)cc1	.	.	-36	-4	3834	-8	-4.3
O=C(CNC(=O)c1cccc(F)c1)OCCOc1cccc(Cl)c1	2	-2	-12	14	4670	-6	2.7
Cc1nc(-c2ccc(S(=O)(=O)Nc3cc(F)ccc3F)cc2)co1	-9	-16	-6	-14	5230	4	2.5
C=CCNC(=O)c1ccc(Cn2cc(C(F)(F)F)ccc2=O)cc1	15	6	-26	9	5164	-5	6.7
CC(C)[C@H](NC(=O)C1CCN(C(=O)[C@H](Cc2ccccc2)NC(=O)OC(C)(C)C)CC1)C(=O)O	12	2	.	17	3087	2	1.8
CCOC(=O)C1CCN(C(=O)Cn2nc(C)n3nc(-c4ccc(CC)cc4)cc3c2=O)CC1	12	3	15	1	4177	2	3.5
Cc1ccc(F)cc1NC(=O)c1sc2ncn(CC(=O)N3CCN(c4ccccn4)CC3)c(=O)c2c1C	3	0	-11	5	4453	-8	1.9
COc1ccccc1CNC(=O)c1cc2c(C)nn(Cc3ccc(F)cc3)c2s1	9	14	-15	-3	2398	6	-17
C[N+]1(C)CCN(c2ccccc2)CC1	0	10	0	0	5868	-7	7.7
CC(C)c1ccc(OCC(=O)NNC(=O)c2cnccn2)cc1	5	3	62*	1	4193	6	-0.4
CCC(C)NC(=O)C1CCC(=O)N(c2ccc3c(c2)OCO3)C1c1ccc(OC)cc1 (stereo not drawn)	7	4	-6	9	5681	2	3.3
COc1ccccc1OCCNC(=O)c1ccc2c(c1)OCCO2	-3	0	-62	7	5099	-1	3.3
Cc1ccc(-n2[nH]c(C)c(C=Nc3ccc(Br)cn3)c2=O)cc1	13	4	-20	4	4416	14	2.9
CCOc1ccc(OCC(=O)NCCc2nc3ccccc3[nH]2)cc1	.	.	-11	3	3371	5	4.7
CN1CCN(c2ccc(NC(=O)c3cccc(S(=O)(=O)N4CCCC4)c3)cc2)CC1	4	-10	-44	5	5663	.	1.0
NC(=O)c1c(NC(=O)CN2CCOCC2)sc2c1CCC2	.	.	1	-5	2194	3	1.4

Some of these compounds in order of count of non-hydrogen atoms, lowest first.
SMILES	Mtb hypoxia inh	Mtb hypoxia inh growth	PrP UTR inh	ugtP null kill	Autofluor counter	BJeLR lethal	Sa RN4220 lethal
NC(=O)c1c(NC(=O)CN2CCOCC2)sc2c1CCC2	.	.	1	-5	2194	3	1.4
COc1ccccc1OCCNC(=O)c1ccc2c(c1)OCCO2	-3	0	-62	7	5099	-1	3.3
CCOc1cc(N2CCOCC2)c(OCC)cc1NC(=O)CN1C(=O)NC2(CCCCC2)C1=O	-6	0	-8	2	3478	.	2.8

The list continues.
SMILES	Mtb hypoxia inh	Mtb hypoxia inh growth	PrP UTR inh	ugtP null kill	Autofluor counter	BJeLR lethal	Sa RN4220 lethal
N#Cc1ccc(OCC(O)CS(=O)(=O)c2ccc(F)cc2)cc1 (stereo not drawn)	16	13	-59	5	4688	-14	6.8
CC1CCCCN1S(=O)(=O)Cc1ccccc1Cl (stereo not drawn)	17	10	-15	1	3627	14	5.7
CCCCCCC(=O)Nc1nnc(CC)s1	3	5	-12	-4	3819	-12	4.0
C=C(C)C1CC=C(C)/C(=N/NC(=O)CNc2ccc(C)cc2C)C1 (stereo not drawn)	.	.	-8	.	2457	-11	.
CCOc1ccc(NC(=O)C23CC4CC(C2)CC(c2ccccc2)(C4)C3)cc1	6	8	-17	-11	2853	-10	-14
CN(CCNC(=O)c1cn(C)c2ccc(S(=O)(=O)N(C)C)cc2c1=O)CCc1ccccc1	.	.	-5	15	6094	-7	-4.3
COc1cccc(C(=O)Nn2cnnc2)c1	2	-4	-20	6	4632	1	3.9
O=C(COc1cccnc1[N+](=O)[O-])Nc1ccc2c(c1)OCO2	15	3	-8	9	3418	1	-3.2
Cc1sc(N)nc1-c1ccccc1	11	1	-20	9	5333	1	7.9
CC(C)(O)C#Cc1ccc(C(=O)N2CCC(C(N)=O)(N3CCCCC3)CC2)o1	3	-7	-17	2	6061	-1	1.4
CCC(NS(=O)(=O)c1ccc(C)cc1)C(=O)O (stereo not drawn)	-4	-7	2	6	21879*	9	0.9
Cc1cc(C)nc(SCC(=O)c2ccc(C)c(C)c2)n1	1	-13	6	4	3840	-11	11
COc1ccc(S(=O)(=O)N2CCC[C@H]2C(=O)NC2=NCCS2)cc1	-14	13	3	-10	?	-4	-3.5
CC(=O)Nc1ccc(Nc2nc(C)c([N+](=O)[O-])c(Nc3ccccc3)n2)cc1	13	4	-5	-12	2146	2	-1.7
Clc1cnc(NN=Cc2ccco2)c(Cl)c1	.	.	.	-2	.	.	1.7
CNCc1ccccc1Sc1cccc(O)c1	5	-1	3	-6	2034	-14	5.0
Cc1ccc(NC(=O)c2ccc3snnc3c2)cc1C	5	-3	-52	-4	5574	-3	1.9
COc1ccc(OCC(=O)Nc2cc(OC)ccc2N2CCCCC2)cc1	.	.	-20	.	3753	-2	.
Cc1cc(-c2cc(-c3ccc(Cl)cc3)on2)nc(NC2CCCC2)n1	3	5	2	6	2819	-14	-6.6
CCOC(=O)Cc1csc2nc3sc(C)c(C)c3c(=O)n12	15	8	-23	11	3354	6	3.8
Cc1ccc(NC(=O)CN(C)C(=O)COC(=O)CNS(=O)(=O)c2ccc(F)c(F)c2F)cc1	-2	10	-4	4	6146	-5	0.5
COC(=O)CN(c1ccccc1[N+](=O)[O-])S(=O)(=O)c1ccccc1	8	0	-17	12	4133	2	3.4
CCOc1cccc(C(=O)N(Cc2ccco2)C2CCS(=O)(=O)C2)c1 (stereo not drawn)	5	11	-4	3	3032	11	3.5
Cc1ccc(-n2ncc(C(=O)NC3CC3)c2C2CCN(C(=O)OC(C)(C)C)CC2)c(C)c1	-8	-2	-4	-7	5842	-1	13
O=C(CP(=O)(c1ccccc1)c1ccccc1)N1CCOCC1	5	0	-1	6	4814	10	5.2

The listing continues.
SMILES	Mtb hypoxia inh	Mtb hypoxia inh growth	PrP UTR inh	ugtP null kill	Autofluor counter	BJeLR lethal	Sa RN4220 lethal
Cc1cc2cc(CCNC(=O)C(=O)c3c[nH]c4ccccc34)c(=O)[nH]c2cc1C	6	5	-4	-15	2559	0	5.3
Cc1cc(=O)[nH]c(NN=Cc2ccccc2Cl)n1	9	3	.	4	.	.	2.0
O=C(COc1ccc(Cl)cc1)NCc1ccncc1	10	3	-1	5	3260	-7	2.3
Cc1cc(C)c2nc(N)sc2c1	6	9	-37	6	3380	-4	2.5
NC(=O)c1ccc(=O)n(Cc2ccc(F)c(F)c2)c1	-6	-9	-12	-2	3571	-9	-3.5
COc1cccc(=O)c2c(C)oc(C)c12	.	.	-11	0	2805	.	-1.1
c1cc2c(cc1CCNC1CCCCCC1)OCO2	7	5	0	-8	.	-3	-6.8
Cc1ccc2nc3sc(C(=O)Nc4ccc(N5CCOCC5)cc4)c(N)c3cc2c1	-9	3	.	5	.	-1	-1.5
O=C(Oc1c(CN2CCOCC2)cc(Cl)c2cccnc12)c1ccccc1	13	3	1	-6	4307	18	12
CCN(C[C@H]1N[C@@](C)(C(=O)OC)[C@H]2C(=O)N(C)C(=O)[C@@H]12)C(C)=O	3	7	-9	0	3558	.	-1.4
COc1ccc(C(CNC(=O)c2cccc(S(=O)(=O)NCc3ccccc3)c2)N(C)C)cc1 (stereo not drawn)	8	0	1	6	6873	6	2.4
